LANA-H2A inh: blocks KSHV LANA binding to histone H2A/H2B; cell-free LANA-H2A/H2B peptide, fluorescence polarization; inhibition, % (concentration not given with the values); 0.6% of 320,000 active; in the data active means inhibition mostly above about 10%, no sharp cut-off; inactive means mostly below about 6.7%;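 further: stock transfer was 7.5 nL into about 10 µL; 0% = median of vehicle wells and 100% = median of positive control wells; one replicate is shown; the record names a cut of 25% in any replicate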
T cruzi inh: blocks replication of Trypanosoma cruzi; T. cruzi beta-gal in NIH3T3, luminescence, 90 h; inhibition, % (test concentration not listed); 1.4% of 300,000 active; AID 1885;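 active means mean inhibition across valid replicates above about 55%, limit read from the data; inconclusive means mean below that limit but half or more replicates reach it; inactive means mean below it, under half of replicates reach it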;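 further: signal also drops with host cell toxicity which is not excluded here; 0% = plate median of DMSO wells and 100% = zero luminescence signal; higher percent means less beta-gal luminescence so fewer parasites; stock transfer was 50 nL into about 50 µL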
ALR H2O2 inh: inhibitors of human sulfhydryl oxidase ALR; P55789; purified ALR, DTT oxidation, H2O2 HRP-luminol luminescence; inhibition, % (no concentration beside the values); 3.8% of 290,000 active;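 active means mean and each replicate at 75% or more; inconclusive means only one of the two met; inactive means neither met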;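 further: stock transfer was 7.5 nL into about 7.5 µL; 0% = neutral wells and 100% = wells with inactivated enzyme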
Target sequence (P55789 whole entry, looked up): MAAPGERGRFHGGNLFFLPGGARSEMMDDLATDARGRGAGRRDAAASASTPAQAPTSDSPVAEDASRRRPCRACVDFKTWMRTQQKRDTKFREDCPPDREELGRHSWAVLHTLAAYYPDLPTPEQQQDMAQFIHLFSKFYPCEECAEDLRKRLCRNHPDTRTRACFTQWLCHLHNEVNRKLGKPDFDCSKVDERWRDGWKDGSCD
rRNA inh HTS: inhibitors of bacterial rRNA selective over humanized ribosomes | E. coli WT GFP vs humanized-ribosome RFP mutants, fluorescence, 24 h; stronger effect = lower value; DMSO median 0, no signal -100 | GFP signal change (wild-type ribosome), % (test concentration not listed) | 1.6% of 350,000 active | AID 720706;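 active means significant combined selectivity score with lowered wild-type GFP, culture density cut under 30%, mutant RFP and density less affected; inactive means any of these conditions unmet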; further: one replicate is shown; some compounds called inactive have numbers as strong as hits
Beta2AR agonist: human beta-2 adrenergic receptor agonism by FAP; Am2.2-beta2AR cells, FAP receptor internalization, flow cytometry; reference of the scale not given here; P07550; 0.43% of 340,000 active; response, % (test concentration not listed);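 active means response above a set limit, near 3 SD of response in nonfluorescent compounds, cut at about 42% in these data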;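 further: stock transfer was 100 nL into about 11 µL; a reference agonist was the positive control; negative values mostly stem from fluorescent compounds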
Target sequence (P07550 whole entry, looked up): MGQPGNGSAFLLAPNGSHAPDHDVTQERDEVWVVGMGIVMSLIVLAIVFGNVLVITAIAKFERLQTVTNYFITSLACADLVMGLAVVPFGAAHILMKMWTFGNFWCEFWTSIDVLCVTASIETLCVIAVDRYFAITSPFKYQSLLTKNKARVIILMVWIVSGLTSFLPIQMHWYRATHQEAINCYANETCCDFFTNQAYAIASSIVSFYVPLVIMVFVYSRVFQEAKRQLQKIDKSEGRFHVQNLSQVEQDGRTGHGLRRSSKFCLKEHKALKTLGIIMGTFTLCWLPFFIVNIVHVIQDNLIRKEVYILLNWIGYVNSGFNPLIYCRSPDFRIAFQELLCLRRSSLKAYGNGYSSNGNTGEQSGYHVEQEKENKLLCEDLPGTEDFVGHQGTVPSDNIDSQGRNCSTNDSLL
A1 inh: inhibitors of the anti-apoptotic protein A1, read as caspase activation. MEF A1-2A-BIM cells, Caspase-Glo 3/7 luminescence, 3 h; percent of clofoctol response, vehicle zero. caspase activation, % (concentration not given with the values). 0.066% of 330,000 active;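 active means over half of replicate activation scores above 10%, or exactly half above 10 with the replicate mean above 10; inconclusive means replicate mean below 10 yet half the replicates above 10; inactive means over half of replicates below 10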;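 further: wells of about 30 µL received 50 nL stock; many hits fall short of the cut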
Beta apoptosis: beta cell apoptosis inhibition. INS-1E cytokine-induced death, ATP luminescence, 48 h; percent of positive-control rescue, neutral wells zero. protection from apoptosis, % (test concentration not listed). 0.8% of 300,000 active;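 active means all replicates at 75% or more, or half of them and the mean; inconclusive means half reach 75% but not the mean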;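 further: 0% = cytokine-treated negative control wells and 100% = positive control rescue; higher means more ATP so stronger rescue from cytokine killing; wells of about 40 µL received 100 nL stock; the first replicate is given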
Calb FLC: affects C. albicans growth with fluconazole. growth inhibition, % (test concentration not listed). 0.57% of 300,000 active. C. albicans CaCi-2 (fluconazole-resistant clinical isolate) + fluconazole, Alamar Blue growth, 48 h;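 active means most replicates above 75%; inconclusive means exactly half above 75%; inactive means most below 75%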;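 further: all wells also contain fluconazole at 8 µg/ml as a sub-toxic cotreatment; 0% = median of DMSO wells and 100% = median of geldanamycin control wells; wells of about 8 µL received 7.5 nL stock; the first replicate is given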
rRNA inh HTS OD600: further read-out of rRNA inh HTS, marked with its call; OD600 change, %; measured here: OD600 growth;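 optical density of the mix in the first replicate; 0 = DMSO median and -100 = no signal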
rRNA inh HTS RFP: recorded beside rRNA inh HTS, whose call it bears; RFP signal change, %; measured here: RFP humanized mutant strains;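 first replicate; 0 = DMSO median and -100 = no signal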
Starred values were filed as active, the others as inactive; ? = inconclusive; . = no result given.

structure	LANA-H2A inh	T cruzi inh	ALR H2O2 inh	rRNA inh HTS	rRNA inh HTS OD600	rRNA inh HTS RFP	Beta2AR agonist	A1 inh	Beta apoptosis	Calb FLC
Cc1cc(C)c2c(CN3CCOCC3)cc(=O)oc2c1	8.0	-1	-5	1	-8	1.3	1	1.0	-5	3
O=C(Nc1ccc(CCC(=O)N2CCCC2)cc1)c1ncn[nH]1	5.1	-4	-2	.	.	.	8	-3.9	-3	-4
CC1(C)OC(=O)C(=NNc2ccc(O)cc2)C(=O)O1	3.6	.	99*	.	.	.	9	-0.1	1	.
Cc1ccc(Cn2c(C3CCCN3c3nc(-c4cc(Cl)c(N)c(Cl)c4)cs3)nc3cc(C(=O)NCCCO)ccc32)cc1 (stereo not drawn)	-4.1	34	0	0	10	0.9	2	0.3	2	2
S=C(NCc1ccco1)Nc1ccc(Cl)cc1	-3.8	21	-2	15	17	2.4	17	0.2	-3	0
Cc1ccc(S(=O)(=O)NCc2ccc(N3CCN(C(=O)OC(C)(C)C)CC3)cc2)cc1	9.4	33	-1	.	.	.	17	0.0	37	-7
COc1cc(C#Cc2c(-c3cncn3C)n(C)c3ccc(-c4ccc5[nH]ccc5c4)cc23)cc(OC)c1	-1.3	.	-3	8	20	0.2	15	-0.7	19	.
Cc1cnc(NC(=O)CSc2nnc(-c3ccccc3)n2Cc2ccccc2)s1	-0.9	5	-18	.	.	.	-9	1.0	-4	4
COC(=O)c1nc(C(=O)OC)c(C(=O)OC)nc1C(=O)OC	-2.5	-18	-3	.	.	.	2	-0.2	2	1
Cc1ccc([N+](=O)[O-])cc1NC(=O)CCc1ccccc1	-8.0	-5	-6	7	10	-0.8	4	-0.6	0	-3
Cn1c(=O)c2c(nc(CN3CCN(c4ccc(F)cc4)CC3)n2CCN2CCOCC2)n(C)c1=O	4.4	-1	19	3	3	-4.4	-4	0.4	-4	2
COC(=O)c1ccc(C(=O)NC2CCCc3c2cnn3-c2ccc(C)c(C)c2)cc1 (stereo not drawn)	5.3	20	3	0	7	-2.8	9	-0.1	12	-2
COc1ccc(NC2CCCN(Cc3cccc4cnccc34)C2)cc1OC (stereo not drawn)	0.7	43	95*	10	7	-0.8	-2	0.3	.	-3
CS(=O)(=O)N(CC(=O)Nc1ccccc1C(=O)NCc1ccco1)c1ccccc1F	-2.4	-5	-10	0	-6	2.3	-2	0.9	1	-10
Nc1nc(SCC(=O)c2cccc([N+](=O)[O-])c2)n[nH]1	-1.5	1	83*	13	16	8.2	1	0.3	-3	37
CC1(C)Oc2ccc3ccc(=O)oc3c2/C(=C/Nc2ccccn2)C1=O	-5.5	23	-2	.	.	.	6	-0.4	10	-2
O=S(=O)(NCCc1c[nH]c2ccccc12)c1ccccc1	-3.8	-6	68	-4	0	7.1	-3	-0.7	0	12
CCc1nc(SCc2ccc(C(=O)OC)o2)n[nH]1	-6.3	-5	-2	6	12	1.2	-1	-1.6	-2	-8
CSCCC(NC(=O)c1ccccc1Cl)C(=O)NCc1ccncc1 (stereo not drawn)	3.2	.	-7	14	5	1.5	12	0.5	-3	.
NS(=O)(=O)c1cccc(NC(=O)COC(=O)CN2C(=O)C3CC=CCC3C2=O)c1 (stereo not drawn)	13	-6	-6	11	10	4.4	5	1.1	.	3
CCCCN(C(=O)COc1ccc(C)cc1OC)c1c(N)n(CCC)c(=O)[nH]c1=O	-0.4	-2	0	8	13	16	1	0.9	2	16
Nc1nc(-c2ccccn2)nc(N)c1Cc1ccccc1F	-1.9	82*	8	-60	-84	-24	2	-0.4	20	21
Cc1cnc(C(=O)NCCc2ccc(C(F)(F)F)cc2)cn1	1.9	-6	0	-1	8	-1.3	2	0.8	-1	20
COCC(=O)N1CCC(n2nccc2NC(=O)c2ccccc2OC)CC1	-3.3	-14	-10	15	4	0.4	16	0.3	5	13
COc1ccc(-n2c(SCC(N)=O)nc3sc4c(c3c2=O)CCC4)cc1	1.9	11	-10	10	6	-1.2	1	-0.2	5	5
Cc1cc(=O)oc2c(C)c(OC(C)C(=O)NCCN3CCOCC3)ccc12 (stereo not drawn)	3.6	3	-3	0	0	-1.8	0	-0.2	-2	-5
Cc1cc(C(F)(F)Cl)n2ncc(-c3ccccn3)c2n1	2.8	-3	.	4	-2	0.0	7	0.5	-4	2
COCCn1cc(C(=O)c2cc(Br)ccc2O)cc(C#N)c1=O	-0.9	2	3	-5	-3	2.1	-2	0.2	7	-6
COc1ccc(CC(=O)NNC(=O)CSc2nc(C)c(C)c(=O)[nH]2)cc1	-1.6	-20	0	1	11	2.9	-7	-0.8	-1	-19
COc1ccc(-n2c(O)cnc2Nc2nc(C)cc(C)n2)cc1OC	0.3	-22	-9	11	5	-2.4	1	0.6	.	-3
CCC(=O)NC(c1ccc(C)cc1)c1ccc2cccnc2c1O (stereo not drawn)	0.5	57*	-5	10	-5	-1.6	12	0.8	6	0
CCOC(=O)C1(CC2CCCCO2)CCN(S(=O)(=O)c2cccc(F)c2)CC1 (stereo not drawn)	0.4	5	-7	-17	-17	5.3	-1	0.0	-3	14
COc1cc(CNc2nnnn2C)cc(OC)c1OC	-0.6	-11	.	13	12	5.5	0	-0.2	-1	-5
Cc1ccc2nc(-c3ccccc3O)c(Nc3ccc4c(c3)OCCO4)n2c1	-7.2	50	7	-1	-11	2.0	-5	-0.5	13	19
O=S(=O)(NCC1CCCO1)c1ccc(NS(=O)(=O)c2ccc(F)cc2)cc1 (stereo not drawn)	1.9	2	.	1	-2	-1.5	4	0.1	2	0
CCOc1ccc(-n2c(=O)cc(N3CCN(c4ccc(F)cc4)CC3)[nH]c2=O)cc1	0.2	-12	0	.	.	.	0	2.9	2	6
O=C(Nc1nc(-c2ccc(F)cc2)cs1)c1cnccn1	4.6	-19	-3	2	15	-8.1	6	-0.2	5	-3
CCOC(=O)/C(C#N)=C(\N)C(C)C(=O)Nc1ccccn1 (stereo not drawn)	-0.7	1	-1	.	.	.	-3	0.2	-6	3
c1coc(CNc2c3c(nc4ncnn24)CCC3)c1	-7.6	-14	-1	.	.	.	1	0.4	-5	30
CC1CCCCC1NC(=O)CN(C)S(=O)(=O)c1ccc2c(c1)c(=O)n(C)c(=O)n2C (stereo not drawn)	-6.8	-5	-13	10	12	0.1	1	0.2	-1	-4
O=C(CCN1CCC(c2cccs2)=N1)c1cccs1	-7.1	0	34	4	1	52	3	-1.5	-1	-6
COc1ccc(NS(=O)(=O)c2cc(NC(=O)c3cnccn3)ccc2OC)cc1Br	8.3	-3	2	-31*	-17*	-2.6*	-12	1.1	6	0
Cc1ccc(O)c(C(=O)c2cnc3onc(-c4ccc(F)cc4)c3c2)c1	-0.5	-3	-21	9	13	2.9	-1	0.1	-7	11
O=C(c1ccc(S(=O)(=O)Cc2cc(F)ccc2F)c([N+](=O)[O-])c1)N1CCCC1	-4.6	-9	.	-5	4	-1.0	-1	-0.1	-19	3
CC1CN(C(=O)c2ccc(COc3ccc4ccccc4c3)o2)CC(C)O1 (stereo not drawn)	-5.3	-3	-35	-36	-57	4.2	-10	-0.5	-12	14
O=C(NC(NC1CCS(=O)(=O)C1)C(=O)c1cccs1)c1ccccc1 (stereo not drawn)	0.9	-10	-12	.	.	.	.	0.0	2	18
O=C(COC(=O)Cc1ccccc1)NCc1ccc2c(c1)OCO2	4.8	.	-6	-1	-7	0.2	4	-0.7	-1	.
Cc1cccc(NC(=S)NCCc2ccc(Cl)cc2)c1C	5.6	-9	6	-6	-24	6.6	5	0.6	4	-11
COc1cc2c(cc1OC)-c1nnc(-c3ccco3)n1C1(CCCC1)C2	3.0	18	-5	.	.	.	-6	-0.3	7	1
CCCNC(=O)c1cc(-c2ccc(OC)cc2)n(CCCOC)c1C	-3.4	-5	-4	6	6	4.3	-4	-1.0	-7	?

(listing goes on)
structure	LANA-H2A inh	T cruzi inh	ALR H2O2 inh	rRNA inh HTS	rRNA inh HTS OD600	rRNA inh HTS RFP	Beta2AR agonist	A1 inh	Beta apoptosis	Calb FLC
CC(=O)c1cccc(NC(=O)c2cc(-c3ccc(C)cc3)on2)c1	0.3	2	3	.	.	.	4	-1.6	-3	-1
Cc1ccccc1Cn1c(=O)n(CC2CCC(C(=O)NCCc3ccccc3)CC2)c(=O)c2ccccc21 (stereo not drawn)	2.5	-1	.	.	.	.	4	0.0	3	-35
CC(c1ccc2c(c1)OCO2)n1c(=S)[nH]c2ccccc2c1=O (stereo not drawn)	4.3	.	59	-51	-79	-14	-18	0.6	-5	.
Cc1ccc(/C=C2/Sc3ccc(C(=O)N4CCN(C)CC4)cc3NC2=O)cc1	-0.4	9	6	-34	-50	-4.1	19	-0.2	-6	25
Cc1ccc(S(=O)(=O)N2CC3CCC2C3)cc1 (stereo not drawn)	-2.7	-7	-4	.	.	.	7	-1.4	-3	-9
C[C@H](CO)N1C[C@H](C)[C@H](CN(C)Cc2ccc(-c3ccccc3)cc2)Oc2ccc(NS(=O)(=O)c3ccccc3)cc2CC1=O	-1.1	.	6	1	-6	1.1	2	3.3	-5	.
CC[C@@H]1Cc2cc(O)ccc2C2=C1c1ccc(O)cc1C[C@H]2CC	-1.9	.	98*	-68	-70	-23	37	-0.1	9	.
Cc1ccc(-n2nc3c(=O)n(CCCC(=O)NCc4ccco4)nc(C)c3c2C)cc1	6.0	-21	.	-2	0	1.2	-8	2.5	4	23
Nc1nnc(SCC(=O)Nc2sc3c(c2C(=O)c2ccccc2)CCCC3)s1	-5.5	-36	28	-19	-24	-18	-14	-0.4	7	15
COc1cccc(C(=O)NCCCN2CCN(CCCNC(=O)c3cccc(OC)c3)CC2)c1	-0.4	16	13	.	.	.	-2	0.2	0	-1
CCCOc1ccc(C(=O)NCCC(=O)NCCCC(=O)OCC)cc1	-0.6	-2	-3	.	.	.	-3	0.4	-3	14
CCOC(=O)c1cnc(-n2nc(C)cc2C)nc1Oc1ccccc1F	0.1	11	5	-30	-27	-1.8	5	0.9	0	12
Cc1cc(C(=O)COC(=O)CCC(=O)c2ccc3c(c2)OCCO3)c(C)n1Cc1ccco1	1.0	18	3	.	.	.	-3	-0.2	-1	.
CCCNc1c(NS(=O)(=O)c2ccc3c(c2)CCCC3)c(=O)oc2ccccc12	3.6	6	10	.	.	.	4	-1.1	-2	-7
O=[N+]([O-])c1ccc2c(c1)nc(CO)n2Cc1ccccc1	1.0	-13	3	-9	-5	0.0	1	-0.5	.	2
COc1cccc(SCc2noc(C(=O)NCCC(C)C)c2C(=O)NCCC(C)C)c1	-4.2	30	61	.	.	.	3	0.4	1	6

High-throughput results (PubChem)

Only part of the results is shown; the hit share may differ from the screen's.
